VDR inhibitor = inhibitors of human vitamin D receptor. hit rate 0.93% among 400,000. VDR-SRC2-3 peptide fluorescence polarization, 2 h. Potency, µM, without a hit: max response, negative = inhibition, most hits filed as inhibitors; active means well fitted inhibition curve with a large enough effect; inconclusive means small, poorly fitted or top-dose-only effect, or another doubt; inactive means no such curve, though single readings can be large or run the other way; further: series mostly up to about 120 µM
Target sequence (P11473 whole entry, looked up): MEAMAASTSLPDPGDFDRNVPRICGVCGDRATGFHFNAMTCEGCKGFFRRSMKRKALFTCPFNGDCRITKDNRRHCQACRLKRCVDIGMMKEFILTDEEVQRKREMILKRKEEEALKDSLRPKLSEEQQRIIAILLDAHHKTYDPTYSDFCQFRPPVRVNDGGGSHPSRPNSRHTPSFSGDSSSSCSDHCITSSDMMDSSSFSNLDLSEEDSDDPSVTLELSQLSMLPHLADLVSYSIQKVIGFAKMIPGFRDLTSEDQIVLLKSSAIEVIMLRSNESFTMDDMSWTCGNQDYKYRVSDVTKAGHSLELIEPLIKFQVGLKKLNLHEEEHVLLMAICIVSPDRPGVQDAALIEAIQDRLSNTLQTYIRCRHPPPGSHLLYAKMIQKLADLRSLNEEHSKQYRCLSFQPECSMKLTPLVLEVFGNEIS
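Two reagent solutions held at 4 deg C in the dark were dispensed, compounds pinned at 23 nl, and the mixture incubated 2 h at room temperature. Read-out: fluorescence polarization of VDR–SRC2-3 peptide binding.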
Active calls of the source: *; u = inconclusive; & = joins results of further samples. On the % scale 0 is the no-effect control and ±100 the full control effect; potency means the concentration at half of the fitted maximal effect.

nr	VDR inhibitor	molecule
1	-4%&-24%	CC(=O)c1ccc2c(c1)N(CCCN1CCC(CCO)CC1)c1ccccc1S2
2	14%	O=C(COC(=O)c1ccco1)c1ccccc1
3	1%	CC(C)=C(NC(=O)c1ccccc1)C(=O)N/N=C/c1ccc(O)cc1
4	-1%	CCOC(=O)C(=O)/C(C#N)=C/Nc1ccc(Cl)cc1
5	-1%	CCOc1ccc(NC(=O)N2CCN(C(=O)c3ccco3)CC2)cc1
6	18%	NS(=O)(=O)c1ccc(CCNC(=O)c2ccc(NS(=O)(=O)c3ccc4[nH]c(=O)[nH]c4c3)cc2)cc1
7	-6%	CCCCC(=O)NCCc1cc2c(OC)ccc(OC)c2[nH]c1=O
8	-25%	Cc1ccc(C(=O)NCCOc2ccc(Cl)cc2)cc1
9	3%	C[C@H](CO)N1C[C@H](C)[C@@H](CN(C)C(=O)NC2CCCCC2)Oc2ccc(NC(=O)Cn3cnnn3)cc2C1=O
10	-3%	Cc1ccc(Nc2nc(N)nc(CSC(=S)N3CCN(c4ccccc4)CC3)n2)cc1
11	8%	COc1ccc2cc(S(=O)(=O)N3CCCC3)ccc2c1
12	3%	NC(=O)[C@@H]1CCCN1
13	-4%	NS(=O)(=O)c1cc2c(cc1Cl)NC(CC1CCCC1)NS2(=O)=O (centres undefined)
14	1%	COc1cc(NC(=S)Nc2ccccn2)cc(OC)c1
15	11%	CCCc1cc(=O)[nH]c2nnc(SC(C)CC)n12 (centres undefined)
16	-7%	O=C(Cn1nc(Cl)nc1Cl)c1ccccc1
17	-2%	COCCNc1nc(-c2cc3ccccc3o2)cs1
18	-6%	Cn1cc(S(=O)(=O)NC(c2ccccc2)c2ccccc2)c(=O)n(C)c1=O
19	1%	CN1CCC(OC(=O)C(Oc2ccc(Cl)cc2)Oc2ccc(Cl)cc2)CC1
20	8%	CN(C)c1ccc(N=Nc2ccccc2C(=O)OCC(=O)N2CCCCCC2)cc1
21	1%	Fc1ccccc1Cn1c2[n+](c3ccc(C(F)(F)F)cc31)CCCCC2
22	-19%	CC(NS(=O)(=O)c1cc2c3c(c1)CCC(=O)N3CCC2)c1ccccc1 (centres undefined)
23	-5%	CC(C)=CCc1c(O)ccc(C(=O)Cc2ccccc2)c1O
24	-3%	COc1ccc(CN(CC(O)COCc2ccccc2)S(=O)(=O)c2ccccc2Br)cc1 (centres undefined)
25	3%	O=C(Nc1ccon1)c1ccc(Br)s1
26	-14%	Cc1ccc2c(c1)c1c3n2CCN(CCC(=O)O)C3CCC1 (centres undefined)
27	0%	Cn1c(SCc2cccc(Br)c2)nc2c1c(=O)[nH]c(=O)n2C
28	-24%	O=c1c(-c2ccccc2)c(O)cc(-c2ccncc2)n1-c1ccc(Cl)cc1
29	-12%	Cc1ccc(C(=O)NN2CCOCC2)cc1[N+](=O)[O-]
30	-9%	Oc1ccccc1C1=Nc2ncnn2C(c2ccc(F)cc2)C1 (centres undefined)

Copied from above, compounds 16 to 30
nr	VDR inhibitor	molecule
16	-7%	O=C(Cn1nc(Cl)nc1Cl)c1ccccc1
17	-2%	COCCNc1nc(-c2cc3ccccc3o2)cs1
18	-6%	Cn1cc(S(=O)(=O)NC(c2ccccc2)c2ccccc2)c(=O)n(C)c1=O
19	1%	CN1CCC(OC(=O)C(Oc2ccc(Cl)cc2)Oc2ccc(Cl)cc2)CC1
20	8%	CN(C)c1ccc(N=Nc2ccccc2C(=O)OCC(=O)N2CCCCCC2)cc1
21	1%	Fc1ccccc1Cn1c2[n+](c3ccc(C(F)(F)F)cc31)CCCCC2
22	-19%	CC(NS(=O)(=O)c1cc2c3c(c1)CCC(=O)N3CCC2)c1ccccc1 (centres undefined)
23	-5%	CC(C)=CCc1c(O)ccc(C(=O)Cc2ccccc2)c1O
24	-3%	COc1ccc(CN(CC(O)COCc2ccccc2)S(=O)(=O)c2ccccc2Br)cc1 (centres undefined)
25	3%	O=C(Nc1ccon1)c1ccc(Br)s1
26	-14%	Cc1ccc2c(c1)c1c3n2CCN(CCC(=O)O)C3CCC1 (centres undefined)
27	0%	Cn1c(SCc2cccc(Br)c2)nc2c1c(=O)[nH]c(=O)n2C
28	-24%	O=c1c(-c2ccccc2)c(O)cc(-c2ccncc2)n1-c1ccc(Cl)cc1
29	-12%	Cc1ccc(C(=O)NN2CCOCC2)cc1[N+](=O)[O-]
30	-9%	Oc1ccccc1C1=Nc2ncnn2C(c2ccc(F)cc2)C1 (centres undefined)

The list continues:
nr	VDR inhibitor	molecule
31	-9%	CN1CCN(NC(=O)c2ccc(F)cc2)CC1
32	4%	Cc1cc2cccc(C)c2nc1SCC(=O)NCC1CCCO1 (centres undefined)
33	13%	O=C(OCCCN=C1NS(=O)(=O)c2ccccc21)c1ccccc1F
34	6%	O=C(NCc1ccccc1Cl)c1ccc(-n2cnc3cccnc32)cc1
35	-16%	Cc1ccc(S(=O)(=O)NCC2CCC(C(=O)NCc3ccccn3)CC2)cc1 (centres undefined)
36	5%&-3%	CC(=O)N[C@@H](CC(=O)O)C(=O)O
37	4%	CSc1ccc(CN(C)CC(=O)Nc2ccccc2C(=O)NC2CC2)cc1
38	-5%	CN(CCc1ccccn1)C(=O)CCC1CCCN(C(=O)CN2CCCCCC2)C1 (centres undefined)
39	-24%	Cc1nnc(SCC(=O)c2ccc([N+](=O)[O-])cc2)s1
40	-8%	COc1ccc(NS(=O)(=O)c2ccc(C(=O)NCC3(N4CCOCC4)CCCCC3)cc2)cc1
41	u	O=C(O)C1CN(c2ncccc2[N+](=O)[O-])C1
42	-12%	O=C(N/C(=C/c1ccc(Cl)cc1)C(=O)N1CCCCC1)c1ccco1
43	-12%	O=C(NNC(=O)C1CCN(c2ncccn2)CC1)c1ccc(Cl)cc1
44	-11%	CCCCNC(=O)CCSc1nc(-c2ccc3c(c2)OCO3)cc(C(F)(F)F)n1
45	-21%	O=C(CSc1c2c(nc3ccccc13)CCC2)Nc1ccc(F)cc1
46	0%	COC(=O)C1(Cc2ccccc2)NC(c2ccccc2C)C2C(=O)N(c3ccc4c(c3)OCO4)C(=O)C21 (centres undefined)
47	25%	CCOC1OC(=O)C(Cl)=C1Nc1ccc(C)cc1 (centres undefined)
48	3%	CCCc1nnc(NC(=O)c2ccc(N3C(=O)C4C5C=CC(C5)C4C3=O)cc2)s1 (centres undefined)
49	-9%	Oc1cccc(NC(=S)Nc2ccccc2)c1
50	-10%	CCN(CC)c1c([N+](=O)[O-])c(=O)n(CC)c2ccccc12
51	u	Cc1cccc2sc(NC(=O)CCNS(=O)(=O)c3cccc4nonc34)nc12
52	-14%	COc1ccc(NC(=O)N2CCCC2C(=O)NCc2cccs2)cc1 (centres undefined)
53	-1%&-19%	COc1cc2c(c(OC)c1OC)C(c1ccc(O)cc1)CC(=O)O2 (centres undefined)
54	-5%	Cc1c(C(=O)Nc2cccc(Cl)c2)cn2c(nc3ccccc32)c1C#N
55	-17%	CCc1ccc(NC(=O)N(CCCN2CCOCC2)Cc2cccs2)cc1
56	-5%	O=C(Nc1cccc2ncccc12)c1cc(Br)ccc1Cl
57	-15%	CCN(CC)c1cc(C)c2cc(NC(=O)/C=C/c3ccc(C)cc3)ccc2n1
58	6%	O=C(NCc1cccc(F)c1)c1cccc2c1C(=O)c1ccc(N3CCOCC3)cc1S2(=O)=O
59	-2%	Cc1ccc(-c2ccc(/C=C3\SC(N4CCOCC4)=NC3=O)o2)cc1
60	-9%	CC(=O)Nc1cc2c(cc1Cl)-c1ccccc1C2
61	-15%	COc1ccccc1-n1c(CCn2nc(C)c(Br)c2C)n[nH]c1=S
62	-10%	CC(=O)Oc1ccc(-c2csc(Nc3ccc(Cl)cn3)n2)cc1
63	u	Cc1ccc(S(=O)(=O)N2CCN(C(=O)c3cc4c(s3)CCCC4)CC2)c(C)c1
64	6%	COc1ccc(/C(C)=N/OCC(=O)N=Nc2c(O)[nH]c3ccc(Br)cc23)cc1
65	-19%	COc1cc2[nH]c(-c3cccc(F)c3)cc(=O)c2cc1OC
66	10%	CC(=O)N(C)C1=C(N2CCOCC2)C(=O)c2ccccc2C1=O
67	4%	O=C(CN1c2ccccc2Sc2ccccc21)N/N=C/c1ccc(Cl)cc1
68	-7%	CCOC(=O)C1CCN(C(=O)c2cccc(N3C(=O)NC4CC3(C)Oc3ccc(C)cc34)c2)CC1 (centres undefined)
69	-16%	Cc1nc2ccc(Br)cc2c(=O)n1Cc1cccs1
70	11%	O=C(Cn1cc2c(n1)CCCCC2)Nc1ccccc1Cl
71	11%	Cc1c(Br)ccc(NC(=O)c2ccccc2[N+](=O)[O-])c1C
72	11%	CCCc1cc(=O)[nH]c2nnc(SCC(=O)Nc3nccs3)n12
73	19%	CCP(=O)(c1ccccc1)C(C)(C)O (centres undefined)
74	1%	O=C(Nc1ccc(Br)cc1)c1cccc(N2C(=O)C3C4C=CC(C4)C3C2=O)c1 (centres undefined)
75	-6%	COc1ccc(C(=O)C2CCCN(Cc3ccc4c(c3)OCCO4)C2)cc1F (centres undefined)
76	-2%	CC(C)c1ccc2oc(=O)cc(CN3CCN(Cc4ccccc4)CC3)c2c1
77	-11%	CN1CCN(c2ccccc2NC(=O)c2ccc(-c3ccc(Cl)c(Cl)c3)o2)CC1
78	-6%	COc1ccc(/C=C(\NC(=O)c2ccccc2)C(=O)NC2CCCCC2)cc1
79	11%	CSc1nccn1CC(=O)Nc1ccc(F)cc1
80	5%	CC(O)C(=O)N/N=C/c1ccccc1C(=O)O (centres undefined)

Next section.
nr	VDR inhibitor	molecule
81	-15%	Cc1cc(C)cc(N2C(=O)CN(Cc3sccc3C)C2=S)c1
82	-12%	CCCC1C2C(=O)N(c3cccc(C)c3)C(=O)C2ON1c1ccccc1 (centres undefined)
83	3%	COC(=O)C1=C(CSc2nccn2C)NC(=O)NC1c1cc(C)ccc1C (centres undefined)
84	11%	COc1ccc(C(=O)OC/C(O)=C(\C#N)c2nc3ccccc3[nH]2)cc1S(=O)(=O)N1CCOCC1
85	-1%	CCC(C)/C(C)=N/NC(=O)CNS(=O)(=O)c1ccc([N+](=O)[O-])cc1 (centres undefined)
86	16%	COc1cc(OC)cc(C(=O)N2CCN(Cc3ccccc3Br)CC2)c1
87	-14%	CC(C)=CCc1c(-c2ccc(O)cc2O)oc2c3c(cc(O)c2c1=O)OC(C)(C)C=C3
88	-7%	COc1ccc(/C=C(/NC(=O)c2ccccc2Cl)C(=O)NCCCC(=O)O)cc1
89	5%	CCCCn1c(COc2cccc(OC)c2)nc2ccccc21
90	-17%	CCN(CC)S(=O)(=O)c1cccc(N=Nc2c(O)c3ccccc3oc2=O)c1
91	5%	CCNC(=O)CC1C(=O)N(c2cccc(OC)c2)C(=O)N1CCOC (centres undefined)
92	-14%	S=C(NCC1CCCO1)Nc1ccc(Cl)cc1Cl (centres undefined)
93	-18%	COc1ccc(OC)c(S(=O)(=O)N2CCC(C(=O)Nc3cccc(C)c3C)CC2)c1
94	-6%	CCOc1ccccc1NC(=O)c1cc2cc3cc(C)ccc3nc2s1
95	3%	O=C(CCc1ccc(S(=O)(=O)NCCc2ccccc2)cc1)Nc1ccc2c(c1)OCO2
96	7%	N#Cc1nc(-c2ccccc2)oc1N1CCN(C(=O)c2ccco2)CC1
97	-4%	COc1ccc(CNC(=O)C(C)Sc2nc3ccccc3c(=O)n2CCCN2CCOCC2)cc1 (centres undefined)
98	-3%	O=C(Cc1ccccc1[N+](=O)[O-])OCN1C(=O)c2ccccc2C1=O
99	2%	Cc1cc(C)cc(SCc2noc(C(=O)NC(C)C)c2C(=O)NC(C)C)c1
100	-2%	CCCCC(=O)NC1CC(=O)N(c2ccc3c(c2)OCCO3)C1 (centres undefined)
101	-2%	O=c1c2c(ncn2C2CCCC2)n(Cc2ccccc2)c(=O)n1CCOc1ccc(Br)cc1
102	-26%	COc1ccc(-c2ccc(OC)c([C@H]3[C@H]4C=CC[C@@H](C)[C@@H]4C(=O)N3Cc3ccccc3)c2)cc1OC
103	0%	CCOC(=O)c1c(C)c(C(=O)NCCc2ccccc2)c(C)n1C
104	7%	Cc1cccc(NC(=S)NCC(c2cccnc2)N(C)C)c1C (centres undefined)
105	-1%	Cc1nc2cc3ccccc3cc2n1C
106	-1%	CCN(CC)c1ccc(C=Nc2ccccc2C)c(O)c1
107	6%	CCOc1ccc(NC(=O)C2CC(=O)N(CCc3ccccc3)C2)cc1OC (centres undefined)
108	9%	COc1ccc(-c2cc(-c3cc(C)ccc3O)[nH]n2)cc1
109	1%	Cc1cc(C(=O)CSc2nnc(Nc3ccccc3F)s2)c(C)n1CC1CCCO1 (centres undefined)
110	14%	Cc1cc(C)c(C#N)c(Nc2ccccc2F)n1
111	-8%	CCOC(=O)C1(CCOc2ccccc2)CCN(Cc2ccc(O)c(OCC)c2)CC1
112	-18%	O=C(Cn1nc(CNc2ccc(Br)cc2)[n+]2c1CCCCC2)c1ccc([N+](=O)[O-])cc1
113	u	O=C(CN1C(=O)CCC1=O)Nc1nc(-c2ccc(Cl)s2)cs1
114	-35%	Cn1cccc1C1C=C(c2ccc(C(C)(C)C)cc2)Nc2ncnn21 (centres undefined)
115	-8%	CC(OC(=O)CN(C)S(=O)(=O)c1ccc(Cl)cc1)C(=O)Nc1cccc(Cl)c1 (centres undefined)
116	0%	CCC(CO)NCc1ccc(Br)cc1 (centres undefined)
117	-6%	Cc1ccc(N2CCN(CCc3nc4cc(NC(=O)c5ccco5)ccc4n3C)CC2)cc1
118	-1%	COC(c1ccccc1)c1nnc(CCC(=O)N2CCN(Cc3cccs3)CC2)o1 (centres undefined)
119	-6%	CCO[C@@H]1OC(C(=O)NC2CC2)=C[C@H](C2CCCCC2)[C@H]1CCCO
120	-10%	CC(=O)Nc1ccc(NC(=O)Cn2ccc([N+](=O)[O-])n2)cc1
121	0%	O=[N+]([O-])c1cc([N+](=O)[O-])c(Oc2cccc(Cl)c2Cl)cc1NN1CCCCC1
122	11%	Cc1ccc(-n2nnc(-c3nsc(NC(=O)c4cccc(Cl)c4)n3)c2C)cc1C
123	-17%	CC(C)c1ccc(S(=O)(=O)N2CCN(C(=O)c3cc(-c4ccccc4)n[nH]3)CC2)cc1
124	-19%	O=S(=O)([O-])CCC[n+]1ccc(Oc2ccccc2)cc1
125	-6%	CCCN1CCC(N2CCN(c3ccc([N+](=O)[O-])cc3)CC2)CC1
126	-1%	COC(=O)c1ccccc1NC(=O)Cc1nc(-c2ccc(OC)cc2)no1

A portion of the library; the hit share may differ from the screen's.
